# Screening data from PubChem.
# StopGo FLuc: lowers the firefly signal of an FMDV 2A StopGo reporter. AID 1745856. HEK cells with a luciferase reporter of 2A StopGo recoding. 0.23% of 120,000 active. Potency, µM (highest dose often 57.5 µM), for inactives: at the top dose signal change, negative = less light; active = well fitted falling curve with a large enough effect; inconclusive = small, poorly fitted or top-dose-only effect; inactive = no such curve, though single readings can be large or run the other way; further: nearly all actives have a fitted effect of over 60% in size; overnight with compound
# 2A Renilla: lowers the Renilla signal of an FMDV 2A StopGo reporter; 0.32% of 120,000 active; HEK cells with a luciferase reporter of 2A StopGo recoding; Potency, µM (top dose mostly 57.5 µM), without a hit: at the top dose signal change, negative = less light; AID 1745857; active means well fitted falling curve with a large enough effect; inconclusive means small, poorly fitted or top-dose-only effect; inactive means no such curve, though single readings can be large or run the other way; further: nearly all actives have a fitted effect of over 55% in size; overnight with compound
# An asterisk follows results filed as active; ? = inconclusive; [ ] = remark or other dose. On the % scale 0 is the no-effect control and ±100 the full control effect; potency means the concentration at half of the fitted maximal effect. Not all compounds are listed, so the mix of outcomes need not match the whole.
mol | StopGo FLuc | 2A Renilla
CCOC(=O)c1oc2c(c1C)C(=O)CSC2 | 13.9% | -2.7%
CCOc1ccc(NC(=O)Cn2c(C)cc3ccccc32)cc1 | 1.4% | -7.4%
COc1cc(OC)c(NC(=O)Cn2c(C(=O)c3cccc(F)c3)nc3ccccc32)cc1Cl | 138.6%[activator] | 34.4%[activator]
CCC/C(=N\NC(N)=S)c1ccccc1 | -3.9% | -8.2%
CCCCOC(=O)C(C)Oc1ccc2c(=O)c(Oc3ccc(OC)cc3)coc2c1 (stereo not given) | -4.7% | -14.0%
O=S(=O)(Nc1cc(Cl)cc(Cl)c1)c1cccc(C(F)(F)F)c1 | ? | 34.3%[activator]
O=C(O)C(Cl)C12CC3CC(C1)CC(C(Cl)C(=O)O)(C3)C2 (stereo not given) | 6.3% | 9.9%
O=C(CCS(=O)(=O)c1nc(-c2ccc3c(c2)OCO3)cc(C(F)(F)F)n1)Nc1ccc(Br)cc1 | -8.4% | -6.4%
Cc1oc2c(C)c3o/c(=N/O)c4c(c3cc2c1C)CCCC4 | 18.0% | -15.6%
CC1(C)CC(NC(=S)NCCN2CCOCC2)CC(C)(C)N1 | -6.1% | -8.5%
COc1c(Cl)cc(C(=O)N(Cc2sccc2C)C2CCS(=O)(=O)C2)cc1Cl (stereo not given) | -5.2% | 6.5%
CCOC(=O)c1cc2c(=O)n3ccccc3nc2n(C(C)C)c1=NC(=O)c1cc2ccccc2o1 | -3.3% | 9.9%
COc1ccc(C(CC(=O)Nc2ccc(Br)cn2)N2Cc3ccccc3C2=O)cc1 (stereo not given) | -12.1% | 123.8%[activator]
CC(C)c1ccc(CNCCN2CCCC2)cc1 | -16.9% | -4.6%
COC(=O)c1cc(NC(=O)Cn2nc(-c3ccc(C)c(C)c3)ccc2=O)cc(C(=O)OC)c1 | -14.4% | -11.4%
COc1ccccc1NC(=O)c1ccc(NC(=O)COC(=O)c2cc(C)nc3ccccc23)cc1 | -2.3% | -17.9%
Cc1ccc(OCC(=O)N(C)CC(=O)N(CC(C)C)c2c(N)n(CC(C)C)c(=O)[nH]c2=O)cc1C | -9.5% | -9.3%
C#CCN1CCCCC1C(=O)NCCc1ccccc1 (stereo not given) | -2.1% | 3.1%
CCOc1ccc(S(=O)(=O)[C@H]2CS(=O)(=O)C[C@@H]2N2CCN(c3ccccc3)CC2)cc1 | 3.7% | 9.6%
COC(=O)c1c(SCC(=O)Nc2cc(F)ccc2F)[nH]c2ccc(C)cc2c1=O | 26.9% | 3.6%

# Whole records from above. Screens in order: StopGo FLuc	2A Renilla
# CCOC(=O)c1oc2c(c1C)C(=O)CSC2 is listed as 13.9%	-2.7%
# Cc1ccc(OCC(=O)N(C)CC(=O)N(CC(C)C)c2c(N)n(CC(C)C)c(=O)[nH]c2=O)cc1C is listed as -9.5%	-9.3%

# Further results:
mol | StopGo FLuc | 2A Renilla
COc1ccc(C)cc1NC(=O)Cn1nc(C(=O)O)c2ccccc2c1=O | -1.7% | -14.6%
O=C(CNC12CC3CC(CC(C3)C1)C2)c1ccc(Cl)cc1 | -5.5% | 0.9%
Cc1ccc(Cl)cc1N(C)C(=O)c1noc2c1CCCCC2 | -10.6% | 24.1%
CCOC(=O)c1c(S(=O)(=O)N2CCN(c3ccccc3OC)CC2)c(C)n(C)c1C | 3.3% | -8.3%
COc1cccc(Nc2nc3ccccc3nc2NS(=O)(=O)c2cccc(Cl)c2)c1 | ? | 32.5%[activator]
CC(NC(=O)CCc1ncc(-c2ccccc2)o1)c1ccc(Cl)cc1 (stereo not given) | 4.3% | -16.4%
O=C(COC(=O)Cc1cccc2ccccc12)Nc1ccccc1 | -3.7% | 0.9%
CCCN(CC(=O)Nc1ccccc1OC)C(=O)Cn1[nH]c(=O)c2ccccc2c1=O | 5.1% | -0.6%
Cc1ccc(/C=C/C(=O)NCC(C)C)cc1 | 0.0% | 10.3%
CCOC(=O)c1cc2cc(Br)ccc2[nH]1 | 40.9%[activator] | ?
CCOC(=O)c1sc(N)c(SC#N)c1C | ? | ?
CCCOc1cc(OCCC)c2c(C)c(CCC)c(=O)oc2c1 | 21.0% | 19.2%
O=C(c1cc(F)ccc1F)N1CCN(Cc2nnnn2C2CC2)CC1 | 11.7% | -0.6%
CC(C)Cc1ccc(C(C)C(=O)NC(CC(C)C)C(N)=O)cc1 (stereo not given) | ? | ?
O=[N+]([O-])c1cc([As](=O)(O)O)ccc1O | 21.7% | 40.6%[activator]
Cc1ccc(OCC(=O)N(CC#N)C2CC2)cc1 | -4.3% | 1.2%
O=c1c2oc3ccccc3c2n(Cc2cccc(C(F)(F)F)c2)c(=O)n1Cc1ccc2c(c1)OCO2 | -8.4% | 6.3%
Cc1c(Cl)ccc2sc(N3CCN(C(=O)c4ccco4)CC3)nc12 | 138.7%[activator] | 10.1%
CC(=O)N1CCCc2cc(S(=O)(=O)N3CCC(C(=O)N4CCC5(CC4)OCCO5)CC3)ccc21 | 1.6% | 11.2%
CC1(C)Cc2c(sc(NC(=O)C(=O)NCc3cccnc3)c2C#N)CO1 | 3.7% | -1.3%
Cc1c(C)c2ccc(OCC(=O)NC3CC(C)(C)NC(C)(C)C3)cc2oc1=O | 8.8% | 4.4%
COC(=O)c1nc2n(n1)C(c1cccc(Br)c1)C(C(=O)Nc1ccccc1OC)=C(C)N2 (stereo not given) | 10.0% | 18.4%
Cc1ccc(CNC(=O)C2CCCN(S(=O)(=O)c3cccc4nsnc34)C2)cc1 (stereo not given) | -19.5% | 0.5%
Cc1ccccc1Cn1c(CCCNC(=O)C2CCCCC2)nc2ccccc21 | ? | 4.0%
CCC(=O)C1=C(c2ccc(OC)c(OC)c2)N(C(=O)CC)n2c(CC)nnc2S1 | -18.1% | -0.3%
COc1ccc(NS(=O)(=O)c2ccc3[nH]c4c(c3c2)CCCC4)cc1OC | ? | 62.2%[activator]
COc1ccc(C(C#N)C(C)=O)cc1OC (stereo not given) | 13.7% | -8.9%[1.06 µM]
Cc1ccc(NC(=O)C(C)Sc2nc(=O)cc(N)n2-c2ccccc2)cc1 (stereo not given) | 4.0% | 21.9%
COC(=O)c1c[nH]c2ncccc12 | 14.1% | 9.8%
CCOc1ccc(NC(=O)C(C)Oc2ccccc2F)c2cccnc12 (stereo not given) | -5.2% | -7.1%
Nc1nccnc1C(=O)Nc1ccncc1 | 25.1% | 15.2%
CCOc1ccc(C(=O)Nc2nc(-c3ccc(Br)cc3)ns2)cc1 | -25.0% | -13.5%
Cc1ccc(C)c(S(=O)(=O)c2nnn3c2nc(NCc2ccc4c(c2)OCO4)c2sccc23)c1 | -24.7% | 8.7%
C=CCn1c(SCCO)nc2c1c(=O)n(C)c(=O)n2C | -3.8% | -11.4%
C=C(CCCN(Cc1ccccc1)Cc1ccccc1)C(=O)OCC | 18.0% | 4.5%
Cc1cc(OCCCn2c(CCNC(=O)C3CCCCC3)nc3ccccc32)ccc1Cl | -12.0% | -8.2%
O=C(CCn1c(=O)c2cccn2c2cccnc21)NCc1ccccc1F | -4.2% | -7.2%
Cc1ccc2[nH]cc(C(c3ccccc3)c3ccc(Cl)s3)c2c1 (stereo not given) | -15.4% | -2.3%
CCCCN(CCCC)CC(O)Cn1cc(/C=C/C(=O)c2ccccc2)c2ccccc21 (stereo not given) | 1.3% | -7.3%
CCS(=O)(=O)c1nc2ccccc2n1CC(=O)Nc1ccccc1C(=O)OC | 0.8% | -6.8%
CC(C)(C)NC(=O)c1ccc(C(=O)NCC2CC2)cc1 | 103.7%[activator] | -13.8%
Cc1ccccc1NS(=O)(=O)c1ccc(C)c(C(=O)N(C)Cc2ccccc2)c1 | 13.8% | 131.0%[activator]
CC1=C(C(=O)Nc2ccc(C)cc2C)C(c2ccccc2)n2ncc(C(=O)Nc3ccccc3)c2N1 (stereo not given) | -10.7% | -5.0%
O=C(Cc1cccc2ccccc12)N(Cc1cccc2[nH]ccc12)C1CC1 | ? | 71.5%[activator]
CC(=O)c1c(C)[nH]c(-c2csc(NC(C)C)n2)c1C | 30.7%[activator] | 47.4%[activator]
Cn1nc(CC(=O)NCc2ccccc2CN2CCCC2)c2ccccc2c1=O | -12.9% | -14.1%
Cc1ccc(C(=O)N(Cc2ccco2)C2CC2)cc1F | 0.7% | 81.7%[activator]
Cc1c(C(=O)N2CCC(C)CC2)c(S(=O)(=O)NCc2ccc(Cl)cc2)c(C)n1C | 6.0% | 95.0%[activator]
CCOc1ccc(N(C(C)C(=O)Nc2ccccc2Oc2ccccc2)S(C)(=O)=O)cc1 (stereo not given) | -11.5% | 9.1%
CC(=O)NCCNC(=O)CN(CC1CCOC1)C1CC1 (stereo not given) | -17.7% | -7.4%

# (cont.)
mol | StopGo FLuc | 2A Renilla
CCc1ccc(-c2noc(CSc3nc4ccccc4o3)n2)cc1 | 18.6% | -3.7%
Cc1ccccc1CN1c2ccccc2-c2nc(SCC(=O)c3ccc(Cl)cc3)ncc2S1(=O)=O | -6.7% | 15.0%
COc1ccc(NC(=O)c2cnc(SC)nc2-c2ccccc2)cc1OC | 14.8% | 12.4%
Oc1c(Br)cc(Br)cc1C=Nc1ccc(F)c(Cl)c1 | 0.0% | 24.9%
COc1ccc(C(=O)n2nc(N)c3cc4ccc(C)cc4nc32)cc1OC | -8.6% | -9.9%
CSCCC(=O)NCc1ccc(C)s1 | 0.0% | -1.9%
CC(=O)c1ccc(OCc2ccc(C(N)=O)cc2)cc1 | 144.9%[activator] | 1.3%
O=C(CNc1ccccc1SC(F)F)N1CCNC1=O | 4.1% | -13.0%
CCOc1ccc(-c2nc(COc3cccc4c3CCCC4O)cs2)cc1 (stereo not given) | ? | ?
C=C(C)CN1CCC(CC(N)=O)CC1 | -2.5% | -0.3%
CCN(CC)S(=O)(=O)c1cc(C(=O)OCc2csc(-c3ccccc3)n2)ccc1Cl | 0.0% | -9.2%
Cc1nn(C(C)C(=O)NC2CCC(C)CC2)c(=O)c2cc3sccc3n12 (stereo not given) | 26.6% | 3.8%
CC(=O)[C@@H]1SC(N)=C(C#N)[C@H]1c1cccs1 | 0.9% | 8.2%
COc1ccc(NC(=O)CN2C(=O)COc3ccc(S(=O)(=O)N4CCCCC4)cc32)cc1OC | -12.2% | -3.9%
COc1ccc(-c2noc(-c3ccc(N4CCN(C)CC4)c([N+](=O)[O-])c3)n2)cc1 | 11.1% | -10.2%
CCCc1nnc(NC(=O)c2nc(S(=O)(=O)Cc3ccc(C)cc3)ncc2Cl)s1 | 5.6% | 55.9%[activator]
Cc1nc(SCC(=O)NC(C)(C#N)C(C)C)n(C2CCCC2)c1C (stereo not given) | -2.1% | -0.1%
CC(NC(=O)CC12CC3CC(CC(C3)C1)C2)c1ccccc1 (stereo not given) | 3.9% | 23.7%
CCC(C)NC(=O)Nc1ccc2c(c1)N(S(=O)(=O)CC)CC2 (stereo not given) | -1.7% | 2.2%
O=C(NCC1(c2ccccc2)CC1)c1cccc(S(=O)(=O)N2CCOCC2)c1 | 13.4% | 21.0%
CC(Sc1nnc(C2CC2)n1C1CC1)C(=O)Nc1ccnn1C(C)C (stereo not given) | 10.4% | 3.0%
O=C(CCN1CCc2ccccc2C(O)(c2ccccc2)C1)c1ccc2c(c1)OCCO2 (stereo not given) | 72.6%[activator] | 10.4%
O=C(NCCc1ccc(C(F)(F)F)cc1)c1ccccn1 | 133.8%[activator] | -2.8%
COc1ccc(-c2cc3c(ccc4ccccc43)oc2=O)cc1 | 80.3%[activator] | 33.8%[activator]
CCOc1ccc(C(=O)C(C)Sc2nnc3ccc(C(F)(F)F)cn23)cc1 (stereo not given) | -14.9% | -13.3%
Cc1noc(C)c1CS(=O)(=O)c1ccccc1Cl | 2.6% | 16.2%
NC(=O)C1CCCN(c2nc(-c3ccncc3)nc3ccccc23)C1 (stereo not given) | 8.6% | 12.3%
CCCCOc1ccc(/C=C(/C#N)c2nc3ccccc3[nH]2)cc1OCC | ? | -12.0%[1.06 µM]
Cc1ccc(NC(=O)/C(C#N)=C/c2ccccc2Cl)cc1C | 56.7%[activator] | 9.6%
Cc1ccc(NC(=O)c2nccnc2-c2nc3ccccc3s2)cc1Cl | 0.0% | -2.8%
Cc1ccc(-c2nc(Cn3nnc(-c4ccccc4C)n3)cs2)cc1 | -0.8% | 10.4%
C[N+](C)(N)CCOCC[N+](C)(C)N | -9.0% | -0.5%
CC1=C(c2ccc(C)c(C)c2)S(=O)(=O)N(CC(=O)NCc2ccc3c(c2)OCO3)C1=O | -14.7% | -11.9%
CCOC(=O)COc1ccc(CC)cc1C(=O)c1ccn2nc(-c3ccc(Cl)cc3)cc2n1 | -6.7% | -5.8%
Cc1ccc2c(=O)cc(C(=O)Nc3ccc(F)cc3)oc2c1 | -7.3% | -10.6%
COC(=O)/C(C#N)=C\c1ccc(OC(F)F)cc1OC(F)F | 22.4% | 8.4%
CCC(C)C(=O)Nc1nc(-c2c(C)[nH]c3ccccc23)cs1 (stereo not given) | 0.0% | 21.4%
Cc1nn(CC(=O)NC(C)(C)C)c(C)c1S(=O)(=O)N1CCC(C(=O)N2CCCC2)CC1 | -2.1% | -10.7%
COc1ccc(S(=O)(=O)c2c(Nc3ccc(C)cc3C)sc(C(=O)c3ccc(F)cc3)c2N)cc1 | -29.4% | 11.2%
CCN1CCN(c2oc(COc3ccc(Cl)cc3Cl)nc2C#N)CC1 | 20.0% | -2.4%
COc1cccc(NC(=O)N(Cc2cn(C)c3ccccc23)C2CCCCCC2)c1 | 0.0% | 22.3%
CCOC(=O)CN1CCN(c2nc3c(c(=O)[nH]c(=O)n3C)n2Cc2ccccc2F)CC1 | 2.8% | 2.9%
CCOc1ccc(S(=O)(=O)NCCc2c(C)[nH]c3c(Cl)cccc23)cc1C | -11.7% | 150.8%[activator]
CC(C)(C)c1cc(Br)c(O)c(C(C)(C)C)c1 | 11.1% | 4.5%
